Vaccinia Venus – vaccinia inhibition (Venus reporter). Vaccinia virus Venus reporter expression, fluorescence. AID 720580. Potency, µM (titrated, usually from 36.5 µM), for inactives: at the top dose activity change, negative = inhibition, actives largely listed as inhibitors. actives 0.46% (n = 330,000); active means well fitted inhibition curve with a large enough effect; inconclusive means small, poorly fitted or top-dose-only effect; inactive means no such curve, though single readings can be large or run the other way; tested in A549 cells; also: nearly all actives have a fitted effect of over 30% in size; inactives centre near -10
VACV mCherry inh – vaccinia inhibition (mCherry reporter); Vaccinia virus mCherry reporter infection, fluorescence; about a quarter of the inactives have no number; Potency, µM (series often up to 36.5 µM), without a hit: at the top dose activity change, negative = inhibition, most hits filed as inhibitors; actives 0.63% (n = 310,000); active = well fitted inhibition curve with a large enough effect; inconclusive = small, poorly fitted or top-dose-only effect; inactive = no such curve, though single readings can be large or run the other way; tested in A549 cells; also: nearly all actives have a fitted effect of over 35% in size; inactives centre near -10
Active calls of the source: *; i = inactive; u = inconclusive; x = not tested or not shown; & = joins results of further samples; [ ] = another dose, or the depositor's remark. % is scaled to controls: 0 for no effect and ±100 for the full control effect; potency is read from the fitted curve at half-maximal effect.

SMILES	Vaccinia Venus	VACV mCherry inh
CN1CCN(NC(=S)NC2CCCCC2)CC1	-8.1%	-10.5%
COc1ccc(Cn2c(=O)n(Cc3ccco3)c(=O)c3oc4ccccc4c32)cc1	-22.3%	-8.0%
COc1ccc(C(=O)c2coc3ccc(OC(C)=O)cc23)cc1	-19.5%	-14.4%
Cc1ccc(S(=O)(=O)N2CCC(=O)N(C(CO)Cc3ccccc3)CC2)cc1 (configuration not stated)	u	i
CCN(CC)CCNC(Cc1ccccc1)c1cccc(OC)c1 (configuration not stated)	-6.1%	i
COC(=O)C(C)Sc1nc2c(cnn2-c2ccc(F)cc2)c(=O)[nH]1 (configuration not stated)	1.1%	-1.8%
O=[N+]([O-])c1ccc2nc(CO)[nH]c2c1	-15.7%	-19.1%
O=C(O)c1ccnc(SCC(=O)c2ccccc2)c1	-6.6%	-17.8%
CCN(c1ccccc1)S(=O)(=O)c1ccc(NC(=O)c2cc(=O)c3ccc(C)c(C)c3o2)cc1	-25.3%	u
COc1ccc(CC(=O)NC2CCCCCC2)c(OC)c1	-0.3%	i
CN(C)S(=O)(=O)c1cccc(NC(=O)COC(=O)C2(c3ccccc3F)CCCC2)c1	u	u
Cc1ccc(NC(=O)c2cc3nc(-c4ccc5c(c4)OCO5)cc(C(F)(F)F)n3n2)cc1Cl	0.8%	1.4%

4 entries already listed, sorted by length of the SMILES, falling:
SMILES	Vaccinia Venus	VACV mCherry inh
CCN(c1ccccc1)S(=O)(=O)c1ccc(NC(=O)c2cc(=O)c3ccc(C)c(C)c3o2)cc1	-25.3%	u
Cc1ccc(NC(=O)c2cc3nc(-c4ccc5c(c4)OCO5)cc(C(F)(F)F)n3n2)cc1Cl	0.8%	1.4%
COc1ccc(C(=O)c2coc3ccc(OC(C)=O)cc23)cc1	-19.5%	-14.4%
O=C(O)c1ccnc(SCC(=O)c2ccccc2)c1	-6.6%	-17.8%

Single records (already shown). Values in the order: Vaccinia Venus	VACV mCherry inh
COC(=O)C(C)Sc1nc2c(cnn2-c2ccc(F)cc2)c(=O)[nH]1 (configuration not stated) as listed: 1.1%	-1.8%
CCN(CC)CCNC(Cc1ccccc1)c1cccc(OC)c1 (configuration not stated) as listed: -6.1%	i
COc1ccc(C(=O)c2coc3ccc(OC(C)=O)cc23)cc1 as listed: -19.5%	-14.4%
CCN(c1ccccc1)S(=O)(=O)c1ccc(NC(=O)c2cc(=O)c3ccc(C)c(C)c3o2)cc1 as listed: -25.3%	u
O=[N+]([O-])c1ccc2nc(CO)[nH]c2c1 as listed: -15.7%	-19.1%

(more compounds)
SMILES	Vaccinia Venus	VACV mCherry inh
O=C1C(=O)N(C2CCN(C(=O)c3cccc(Cl)c3)CC2)CCN1Cc1ccc(F)cc1	-3.2%	-6.9%
CN(C)S(=O)(=O)N1CCC(Oc2cccc(C(=O)N3CCCCCCC3)c2)CC1	-17.7%	-18.6%
CCN1CCC(N(C)C2CCCCC2)CC1	-9.7%	-14.6%
COc1ccc(C(=O)N2CCOCC2)cc1S(=O)(=O)N1CCCc2ccccc21	-9.9%	i
CCc1ccccc1Nc1nn2c(=O)c3ccc(C(=O)NCCC4=CCCCC4)cc3nc2s1	-12.2%	-16.1%
CCn1c(SCC(=O)NCc2ccccc2)nc2c(c1=O)SC(C)C2 (configuration not stated)	-2.0%	8.4%
CCOc1ccc(CCNC(=O)Cn2cccc2C(=O)c2ccccc2)cc1OCC	-6.7%	-9.7%
COc1ccc(CCNC(=O)CSc2cn(CCNC(=O)c3c(F)cccc3F)c3ccccc23)cc1OC	-2.2%	-5.3%
CCOc1ccc(NC(=O)COc2ccc(C(=O)NCc3cccc(OC)c3)cc2OC)cc1	-5.2%	-12.7%
CN(C)S(=O)(=O)N1CCC(CCCC2CCN(S(=O)(=O)N(C)C)CC2)CC1	-7.6%	-6.8%
CCOC(=O)CSc1nc2ccccc2c(=O)n1CC	-6.7%	-16.4%
Cc1ccc(C2=CC(=O)C[C@H](c3ccc4c(c3)OCO4)C2)cc1	-7.5%	-4.2%
CCN1C(c2ccccc2)=C(c2ccccc2)S/C1=C\C=C1/SC(=S)N(C)C1=O	154.6%[activator]	111.9%[activator]
COC(=O)c1cccc(Oc2cccc(C(F)(F)F)c2)n1	-10.4%	i
COc1cccc(CN2CCN(Cc3ccon3)CC2CCO)c1 (configuration not stated)	5.0%	-0.1%
COc1ccc(OC)c(NC(=O)Cn2ccc3ccccc3c2=O)c1	-1.6%	-0.5%
O=C(O)c1ccc(O)c(O)c1	-3.7%	-12.0%
COc1ccccc1N1CCN(C(=O)C2CCCN(c3ncnc4c3nc3n4CCCCC3)C2)CC1 (configuration not stated)	-20.6%	-2.4%
Cc1cc(C)c2c(=O)cc(C(=O)Nc3ccccc3C(F)(F)F)oc2c1	-8.1%	-15.2%
CC(Oc1ccc2c(-c3ccccc3)cc(=O)oc2c1)C(=O)N1CCC[C@@H]1C(N)=O (some centres not stated)	-10.5%	-10.2%
O=C(C1CN(C(=O)c2cc3cc(Cl)ccc3o2)c2ccccc2O1)N1CCCCC1 (configuration not stated)	-13.2%	-12.6%
Cn1c(SCC(=O)Nc2ccc3cn[nH]c3c2)nnc1-c1cnccn1	2.1%	-3.9%
CC1=CC(=O)C2=C(C)C[C@H](O)[C@@H]3[C@H](OC(=O)[C@H]3C)[C@@H]12	-13.9%	i
COc1cc(C(=O)N[C@@H](C)C(=O)NCc2ccco2)cc(OC)c1OC	-5.4%	i
O=C(Nc1cccc(S(=O)(=O)Nc2ccccc2Cl)c1)c1ccc(N2CCCC2)c([N+](=O)[O-])c1	-8.7%	-2.0%
O=C(NCCCN1CCOCC1)c1ccc(S(=O)(=O)Nc2ccccc2F)cc1	-22.7%	-23.6%
COc1ccc(/C=C2/C(=O)OCc3cc(OC)c(OC)cc32)c(OC)c1	u	u
CC1CC(OC(=O)c2ccccc2O)CC(C)(C)C1 (configuration not stated)	-4.0%	i
Cc1ccc(CN2C(=O)CSCC2(C)C(=O)NCc2ccccc2)cc1 (configuration not stated)	-6.2%	i
Cc1ccc(S(=O)(=O)NCC(=O)OCC(=O)N2CCN(C(=O)c3ccco3)CC2)cc1C	11.7%	-8.7%
COc1cc(C(=S)N2CCOCC2)ccc1OS(=O)(=O)c1ccc(NC(C)=O)cc1	-0.6%	i
O=C(O)c1cccc(N=NN2CCCCCC2)c1	-3.2%	-9.4%
CC1(Cc2ccccc2F)C(=O)Nc2c(Cl)ccc(Cl)c21 (configuration not stated)	-13.6%	-13.5%
O=C(COC(=O)CNS(=O)(=O)c1ccc2ccccc2c1)Nc1ccc2c(c1)OCO2	-14.4%	i
Cc1cc(NC(=O)c2cccs2)cc(-c2nc3cc(Cl)ccc3o2)c1O	-5.7%	-6.6%
S=C(NCc1ccc(Cl)cc1Cl)NC1CCCCC1	u	u
CC(NC(=S)Nc1ccccc1)C1COc2ccccc2O1 (configuration not stated)	6.2%	-3.1%
COC(=O)c1cc(NC(=O)CC2C(=O)NCCN2C(=O)c2ccc(F)cc2)cc(C(=O)OC)c1 (configuration not stated)	-10.3%	i
C=C(C)CSC1=C(C#N)C(c2ccccc2)CC(=O)N1 (configuration not stated)	-13.8%	-4.2%
Cc1cccc(-c2noc(CCCC(=O)Nc3cccnc3)n2)c1	-5.4%	-20.7%
Cc1ccc2cc(CCNC(=O)c3ccc(C)c([N+](=O)[O-])c3)c(=O)[nH]c2c1	0.0%	-11.4%
COc1ccc(C)c2sc(N3CCN(C(=O)c4cccc(F)c4)CC3)nc12	-14.5%	-18.9%
C/C(=N/NC(=O)c1cnccn1)c1ccncc1	8.7%	6.4%
O=C(CCc1ccccc1Cl)Nc1cc(S(=O)(=O)N2CCOCC2)ccc1N1CCCC1	-4.1%	u
Cc1ccc(N)cc1S(=O)(=O)N(C)C	8.5%	-5.5%
NC1(C(=O)O)CCc2cc(P(=O)(O)O)ccc21 (configuration not stated)	-8.7%	-18.1%
O=C(CCN1CCC2CCC(C2)C1)c1ccc(F)cc1 (configuration not stated)	-2.4%	-9.0%
CC(C)c1cn(CC[C@@H]2CC[C@@H](NC(=O)C3CCCCC3)[C@@H](CO)O2)nn1	-7.7%	-1.7%
CC(c1ccccc1)n1c(-c2cccs2)nc2c(c(=O)c3ccccc3n2C)c1=O (configuration not stated)	-10.5%	-1.3%
COC(=O)[C@@]1(Cc2ccc(F)cc2)[C@H]2c3cc(C(=O)N(C)C)n(CCc4ccccn4)c3C[C@H]2CN1C(=O)c1ccccc1	-9.8%	i
O=C(CSc1ccc2nnc(-c3cccs3)n2n1)N1CCOCC1	-8.1%	-8.2%
CC1(C)CC(=O)C(C=NCCN2CCN(CC(=O)Nc3ccc(F)cc3)CC2)=C(O)C1	-9.7%	i
COc1ccccc1N1CCN(C(=O)C2CCN(S(=O)(=O)N3CCOCC3)CC2)CC1	-1.5%	x
O=C(Nc1cccc(S(=O)(=O)NC2=NCCCCC2)c1)c1cc(-c2ccccc2Cl)nc2ccccc12	-23.6%	-6.8%
Cc1ccc(NC(=O)c2[nH]cnc2C(=O)NN)cc1	-14.7%	-11.7%
Nc1nonc1-n1nnc(C(=O)N/N=C/c2cccnc2)c1CSC1=NCCS1	-15.3%	u
COc1ccccc1CO/N=C/c1cccn1-c1nccc(N(C)C)c1C#N	-14.3%	x
Cc1cc(=O)c(C(=O)O)nn1-c1ccccc1	-2.1%	-14.4%
Cc1c(Cl)cccc1Nc1nc(N)nc(CSc2nc3ccccc3s2)n1	-4.4%&-21.0%	-15.2%&-22.9%
Cc1ccc(Cl)c(OCCN2CCCC(C)C2)c1 (configuration not stated)	-2.1%	i

Other results:
SMILES	Vaccinia Venus	VACV mCherry inh
CCOC(=O)c1[nH]c(C)c(CN(C(C)=O)c2ccc(OCC)cc2)c1C	-20.8%	-9.2%
O=C(Nc1ncn[nH]1)c1cc(S(=O)(=O)Nc2ccc(Cl)cc2)ccc1Cl	-25.1%	-5.8%
O=C1CC2(CCN(S(=O)(=O)c3ccccc3)CC2)Oc2ccccc21	0.0%	-12.1%
COc1ccc(-n2c(=S)[nH]c3cc(C(=O)Nc4ccc(C)c(F)c4)ccc3c2=O)c(OC)c1	u	i
COc1ccc(C(=O)NNC(=O)Cc2coc3cc(OC)ccc23)cc1	-12.7%	-8.7%
COc1ccc(/C=N/N2CCN(C)CC2)c(OC)c1OC	0.6%	-10.4%
O=C(CN(C(=O)CNS(=O)(=O)c1ccc(F)cc1)c1ccc(F)cc1)NCc1ccco1	-1.0%	i
NCc1ccc2[nH]c(=O)[nH]c2c1	-7.9%	i
O=C(O)C1OC(C(=O)O)C2C1C(F)(F)C2(F)F (configuration not stated)	-10.4%	-16.0%
Cc1cc(C)c(NC(=O)c2cc(S(=O)(=O)N3CCC4(CC3)OCCO4)ccc2F)c(C)c1	-1.6%	-3.3%
Cc1ccc(C(C)C)c(OC/C(O)=C(\C#N)c2nc3ccccc3[nH]2)c1	-28.7%	-28.1%
Cc1nc2c3ccccc3n(CC(=O)c3ccc(F)cc3)c(=O)n2n1	-8.2%	-10.0%
CCc1cc(C(=O)OCC(=O)NCCc2ccccc2)sc1C	-6.5%	-3.2%
COCCCN1C(=O)c2ccc(C(=O)OCC(=O)N(C)c3ccccc3)cc2C1=O	-13.8%	-5.7%
CC(Sc1nc2ccccc2[nH]1)C(=O)Nc1ccc2c(c1)OCCO2 (configuration not stated)	-15.8%	-3.3%
CCOc1ccc(NC(=O)CN2C(=O)CSC(C)C2=O)cc1 (configuration not stated)	-0.4%	i
CCN(CCn1cccn1)C(=O)CCc1nnc(C2CCCCC2)o1	1.6%	-4.3%
Cc1ccccc1Cn1cnc2ccccc2c1=O	-10.6%	i
COc1ccc(/C=N/NC(=O)c2cccnc2)c2ccccc12	-14.3%	i
O=c1/c(=C/c2ccco2)sc2n1CN(c1ccccc1)CN=2	10.3%	x
COc1cccc(CNC[C@H]2O[C@@H](n3cnc(C(N)=O)n3)[C@H](O)[C@@H]2O)c1OCc1ccc(F)cc1Cl	-9.6%	i
Cc1cc(-c2ccccc2)nc(SCC(=O)c2cccc([N+](=O)[O-])c2)n1	u	-13.9%
C#CCOCCOCCOCCNc1nc(N2CCOCC2)nc(N2CCN(C(=O)[C@H](CCCCN)n3cc(CCCC)nn3)CC2)n1	12.6%	-13.1%
C=CCn1c(=O)c2c(nc(-c3ccccc3)n2C)n(C)c1=O	-9.4%	-17.4%
CCN(C(=O)Cn1cc(C(C)=O)c2ccccc21)c1ccccc1	-2.8%	-5.8%
C/C(=N\NC(=O)c1ccc(NS(=O)(=O)c2cccs2)cc1)c1ccccn1	-24.8%	u
CCCc1nnc(SCC(=O)O)n1/N=C/c1ccc2c(c1)OCO2	6.8%	i
Cc1cc(-c2ccccc2)nc(N2CCC(C(=O)NC34CC5CC(CC(C5)C3)C4)CC2)n1	-7.4%	i
Cn1c(COc2ccc(Cl)cc2)nnc1SCC(=O)NC1CCCC1	6.1%	-10.9%
Cc1ccc(S(=O)(=O)N2CCC(C(=O)NC3CC(C)(C)NC(C)(C)C3)CC2)cc1	-9.0%	-15.9%
CCOc1ccc(NC(=S)N(CCCN2CCCC2)Cc2cccn2Cc2ccc(Cl)cc2)cc1	-10.9%	u
CCC(=O)N1CCc2cc(CNC(=O)Cc3ccc(OC)c(OC)c3)ccc21	-11.2%	-12.4%
CC#CCN(CC#CC)S(=O)(=O)c1ccc(S(=O)(=O)N2CCOCC2)cc1	-9.1%	-7.6%
O=c1c(NCc2cccs2)nccn1-c1ccccc1	0.3%	-7.2%
COc1ccccc1CNC(=O)N1CCN(c2ccccc2Cl)CC1	-9.2%	i

2 records picked at random from the list so far:
SMILES	Vaccinia Venus	VACV mCherry inh
Cc1ccc(S(=O)(=O)N2CCC(C(=O)NC3CC(C)(C)NC(C)(C)C3)CC2)cc1	-9.0%	-15.9%
CCOc1ccc(NC(=S)N(CCCN2CCCC2)Cc2cccn2Cc2ccc(Cl)cc2)cc1	-10.9%	u

Screens as filed in PubChem BioAssay.
